LT uptake inh: qHTS Assay for Anthrax Lethal Toxin Internalization. Cells, anthrax lethal toxin internalization, FRET ratio (460/530). Potency, µM (doses to about 40 µM), inactives show at the top dose activity change, negative = inhibition, actives largely listed as inhibitors. 0.67% of 70,000 active; active = well fitted falling ratio curve with the 530 nm signal flat; inconclusive = other ratio curves, or a change in one channel alone; inactive = flat curves in the ratio and both channels; the % refers to the ratio; note: % is set by controls: 0 for no effect and ±100 for the full control effect; nearly all actives have a fitted effect of over 50% in size; tested in ME-180 cells; beta-lactamase reporter
SmPrx2 inh: Schistosoma Mansoni Peroxiredoxins (Prx2); S. mansoni Prx2 activity coupled to TGR/GSH (TGR is thioredoxin glutathione reductase), NADPH fluorescence loss, qHTS; some inactives read as strong as hits; 0.07% of 65,000 active; Schistosoma mansoni peroxiredoxin 2 (Prx2); Potency, µM; active means full or partial inhibition curve with a strong effect at the top dose; inconclusive means weaker partial or single-point curve; inactive means no accepted curve; note: series up to 57 µM; many of its hits are not listed in these tables
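Purified S. mansoni TGR and Prx2 in pH 7.4 phosphate buffer with EDTA and Tween-20 were preincubated with compounds for 15 min. Further NADPH/GSH was added, then a 2.5 mM H2O2 aliquot initiated turnover, followed kinetically by NADPH fluorescence.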
The depositor's hits bear a star; i = inactive; ? = inconclusive; · = not tested or not shown; & = joins results of further samples; [ ] = remark or other dose. Potency is the fitted concentration of half-maximal effect. This is a subset; rates above refer to the full screens.

SMILES | LT uptake inh | SmPrx2 inh
O=C(Nc1ccc(N2CCOCC2)cc1)C1CCCN(S(=O)(=O)c2cccc(C(F)(F)F)c2)C1 (configuration not stated) | 0.0% | >57
Cc1cccc(-c2noc(CN(C)S(=O)(=O)c3cc(Cl)ccc3Cl)n2)c1 | ? | >57
CCn1c(COc2cccc(OC)c2)nnc1SCC(=O)Nc1ccccc1C(=O)OC | -16.5% | >57
Cc1cccc(-n2ncc3c(NCc4ccccn4)ncnc32)c1 | 9.2% | >57
CCCn1c(=N)c(C(=O)NCC2CCCO2)cc2c(=O)n3cccc(C)c3nc21 (configuration not stated) | 3.5% | i
Cc1oc(-c2ccc(Cl)cc2)nc1CN1CCC(C(=O)NCCCN2CCOCC2)CC1 | ? | >57
COC(=O)COc1ccc(-c2nn(C)c(=O)c3ccccc23)cc1 | 7.6% | >57
COC(=O)Cc1cc(=O)n(-c2nc3ccccc3[nH]2)[nH]1 | ? | >57
CC(=O)C1C(c2ccccc2OC(F)F)NC(=O)NC1(O)C(F)(F)F (configuration not stated) | -1.6% | >57
O=C(O)C(=O)Cc1ccc2c(c1)OCO2 | 0.4%[8 µM] | >57

Complete entries, looked up by structure. Values in the order: LT uptake inh, SmPrx2 inh
Listed for Cc1cccc(-c2noc(CN(C)S(=O)(=O)c3cc(Cl)ccc3Cl)n2)c1 = ?, >57
Listed for CC(=O)C1C(c2ccccc2OC(F)F)NC(=O)NC1(O)C(F)(F)F (configuration not stated) = -1.6%, >57
Listed for CCn1c(COc2cccc(OC)c2)nnc1SCC(=O)Nc1ccccc1C(=O)OC = -16.5%, >57
Listed for CCCn1c(=N)c(C(=O)NCC2CCCO2)cc2c(=O)n3cccc(C)c3nc21 (configuration not stated) = 3.5%, i
Listed for COC(=O)Cc1cc(=O)n(-c2nc3ccccc3[nH]2)[nH]1 = ?, >57

Next section
SMILES | LT uptake inh | SmPrx2 inh
COc1ccccc1N1CCN(CC(=O)c2c(C)n(C)c3ccccc23)CC1 | 0.1% | >57
COc1ccc(OC)c(NC(=O)CN(c2ccc(OC)c(Cl)c2)S(C)(=O)=O)c1 | ? | >57
CCOc1ccccc1NC(=O)c1ccc(F)c(S(=O)(=O)N2CCC3(CC2)OCCO3)c1 | -7.2% | >57
COc1ccc(N(CC(=O)Nc2ccc3c(c2)OCCO3)S(=O)(=O)c2c(C)noc2C)cc1 | ? | >57
CCCc1cc(=O)n2[nH]c(Cc3ccccc3)nc2n1 | -1.7% | >57
CCN(C(=O)CN1CCN(c2ccc(O)cc2)CC1)c1c(N)n(Cc2ccccc2)c(=O)[nH]c1=O | -15.0% | >57
CSCCC(NS(=O)(=O)c1ccc2c(c1)OCCO2)C(=O)NCCc1ccccn1 (configuration not stated) | 4.1% | >57
O=C(/C=N/O)NCCCn1ccnc1 | -1.3% | >57
CCc1ccc(NC(=O)c2cc(C(C)C)on2)cc1 | ? | >57
O=C(NCc1ccccc1)c1ccc(CN2CCOCC2)cc1 | 5.3% | >57
COc1ccc2c(Cl)cc(NC(=S)Nc3ccccc3)nc2c1 | ? | >57
O=CCCCC=O | ? | ·
C=CC(C)=O | 2.0% | ·
COC(=O)c1ccc2c(=O)n(Cc3ccco3)c(SCC(=O)Nc3ccccc3Cl)nc2c1 | · | >57
Fc1ccc(C(c2nnnn2Cc2cccs2)N2CCN(C3CCCCC3)CC2)cc1 (configuration not stated) | -14.3% | >57
Cc1ccsc1C(C(=O)NC1CCCCC1)N(C(=O)Cc1cccs1)C1CC1 (configuration not stated) | ? | >57
CC1CCN(CC[S-])CC1.O.O.[Cl][Pt] | ? | >57
CCOc1ccccc1NC(=O)CN(C)S(=O)(=O)c1cccc2nsnc12 | -1.6% | >57
CCOc1cc(C2C(C(=O)N3CCCCC3)=C(C)NC3=C2C(=O)CCC3)cc(Br)c1O (configuration not stated) | -8.3% | >57
Cc1cc(C(F)(F)F)nn1-c1nc(-c2ccco2)cc(C(F)(F)F)n1 | -13.5% | >57
CC(C)C1N=C2c3ccccc3N=C(SCc3cc(=O)n4ccccc4n3)N2C1=O (configuration not stated) | 0.5% | >57
Cc1cn(-c2ccc(Br)cc2)[nH]c1=O | 8.6% | >57
Cc1ccc(N=Cc2ccc[nH]2)c(O)c1 | -13.5% | ·
COc1ccc(N2CCCn3c2nc2c3c(=O)n(Cc3ccccc3F)c(=O)n2C)cc1 | ? | >57
COc1ccc(-c2noc(CN3CCC(Cc4ccccc4)CC3)n2)cc1 | ? | >57
COc1ccc(C)cc1S(=O)(=O)Nc1ccc(F)cc1 | 0.7% | >57
CC(C)C(c1nnnn1C1CCCCC1)N1CCc2ccccc2C1 (configuration not stated) | -19.2% | >57
COc1cccc(C(c2sc3ncnn3c2O)N2CCN(C(=O)c3ccco3)CC2)c1 (configuration not stated) | -9.1% | >57
COc1cc2nc(NCCN3CCOCC3)n3nc(-c4ccccc4)nc3c2cc1OC | -3.9% | >57
CCOC(=O)c1nnn(-c2nonc2N)c1COc1cc(C)c(Cl)c(C)c1 | -19.6% | >57
CCc1ccccc1NC(=O)CSc1nc2n[nH]c(C)c2c(=N)n1-c1ccc(OC)cc1 | -2.4% | >57
CC(N=Cc1c(O)[nH]c(=O)[nH]c1=O)c1ccccc1 (configuration not stated) | 5.3% | ·
CC1CCCCC1NC(=O)c1cncc(Br)c1 (configuration not stated) | -0.7% | >57
CSc1nc(SC)c2c3c(oc2n1)COC(C)(C)C3 | -1.3% | >57
O=C(Oc1ccccc1)N1CCC[C@@]2(CCN(c3ncccn3)C2)C1 | -4.4% | >57
O=C(NCC1CCCO1)c1cc2c(s1)CS(=O)(=O)C2 (configuration not stated) | -23.6% | >57
Cn1c(Cn2nnc3ccccc32)nnc1SCC(=O)N1c2ccccc2Sc2ccccc21 | 10.8% | >57
Cc1cnc(NC(=O)COc2ccccc2Cl)s1 | ? | >57
O=C(O)C1CC=CCC1C(=O)Nc1ccc(F)c(F)c1 (configuration not stated) | 1.3% | >57
c1ccc(Cn2c(SCc3nc4ccccc4s3)nnc2-c2ccco2)cc1 | -28.2% | >57
Cc1cc(C(F)(F)F)nc(SCc2ccc(C(=O)O)o2)n1 | ? | >57
CC(C)Cc1nnc(NC(=O)CCC(=O)N2CCOCC2)s1 | · | >57
N#CC1=C(N)Oc2c(c(=O)oc3ccccc23)C1c1ccc(OC(=O)N2CCOCC2)cc1 (configuration not stated) | ? | >57
Cc1ccc(-n2c(C)cc3c2CCCC3=O)cc1 | -8.2% | >57
CCSc1nnc([C@H](C)NC(=O)OC(C)(C)C)o1 | 23.0% | >57
CC(C)Cn1c(CNC(=O)c2ccccc2)nc2ccccc21 | 2.5% | >57
O=C(c1ccc2snnc2c1)N1CCCC1 | 7.0% | >57
CC(C)NC(=O)Cn1c(SCC(=O)N2CCc3ccccc3C2)nc2ccccc21 | -1.3% | >57
CCOC(=O)c1cc(-c2ccc(/C=N\n3cnnc3)o2)ccc1Cl | -1.4% | >57
Cc1cc(NCc2ccc3c(c2)OCO3)n2nc(C)nc2n1 | -9.2% | >57

Next results:
SMILES | LT uptake inh | SmPrx2 inh
O=C(O)c1cccc(CN2C(=O)SC(Nc3ccccc3)C2=O)c1 (configuration not stated) | · | >57
C#CCn1cc[n+](CC(=O)N(C)C)c1 | -10.2% | >57
c1c2c(cc3sc(N4CCOCC4)nc13)OCO2 | 16.1% | >57
CCOc1ccc(C(=O)N2CCCCCC2)cc1 | ? | >57
CCCOc1ccc(C(=O)Nn2c(C)nc3ccccc3c2=O)cc1 | 2.2% | >57
COc1ccc(N2C(=O)C3CCCN3C2c2cccc(Br)c2)cc1 (configuration not stated) | 1.0% | >57
COc1ccc2[nH]c(C)c(CCN3C(=O)OC(C)(C)C3(C)O)c2c1 (configuration not stated) | -1.8% | >57
COC(=O)c1cccc(-n2nnnc2SCC(=O)Nc2nc3c(s2)CCCC3)c1 | 0.7% | >57
Cc1cc(C)n(C(=O)c2cc3ccccc3c(=O)o2)n1 | -23.1% | >57
CC(NC(=O)Nc1ccccc1)C(c1cccs1)N1CCN(C)CC1 (configuration not stated) | -16.6% | >57

A second format for some results above:
SMILES	LT uptake inh	SmPrx2 inh
COc1ccc2[nH]c(C)c(CCN3C(=O)OC(C)(C)C3(C)O)c2c1 (configuration not stated)	-1.8%	>57
COC(=O)c1cccc(-n2nnnc2SCC(=O)Nc2nc3c(s2)CCCC3)c1	0.7%	>57
Cc1cc(C)n(C(=O)c2cc3ccccc3c(=O)o2)n1	-23.1%	>57

Following part.
SMILES | LT uptake inh | SmPrx2 inh
Cn1c(NCc2ccco2)nc2ccccc21 | ? | >57
CC(C)C(c1nnnn1C1CCCC1)N1CCCc2ccccc21 (configuration not stated) | ? | >57
CC(C)(C)c1cc(Br)ccc1OCC(=O)Nc1ncn[nH]1 | 7.94µM* | ·
COc1ccc(Nc2ncc3c(n2)CC(c2ccc(OC)cc2)CC3=O)cc1 (configuration not stated) | ? | >57
N[C@H](CP(=O)(O)O)C(=O)O | ? | >57&>57
O=C(c1ccc(CS(=O)(=O)c2ccc(Br)cc2)o1)N1CCN(c2ncccn2)CC1 | -17.7% | >57
CCC1Oc2ccc(C)cc2N(CC(=O)N(Cc2ccc3c(c2)OCO3)CC2CCCO2)C1=O (configuration not stated) | -2.6% | >57
CCOC(=O)N1CCN(c2c(Nc3ccc4c(c3)OCCO4)c(=O)c2=O)CC1 | ? | >57
C=CCNC(=O)c1ccccc1NS(=O)(=O)c1ccccc1 | ? | >57
O=C(NC1=NCCS1)c1cccc(S(=O)(=O)N2CCCCC2)c1 | 13.5% | >57
COc1ccc(OC)c(S(=O)(=O)Nc2cccc(C(C)=O)c2)c1 | ? | >57
O=C(NCc1ccc2c(c1)OCO2)C1CCCN(S(=O)(=O)c2cccc3cccnc23)C1 (configuration not stated) | -15.9% | >57
CCOc1ccc(-n2c(-c3ccco3)n[nH]c2=S)cc1 | ? | >57
O=C(c1cnccn1)N1CCC2(CCCN(c3ncccn3)C2)CC1 | 0.0% | >57
CNC(=O)c1c(C)nc(SCC(=O)NCc2ccc(OC)cc2)c(C#N)c1-c1ccco1 | -15.5% | >57
O=S(=O)(c1ccc2c(c1)C(=NO)c1cc(S(=O)(=O)N3CCCCC3)ccc1-2)N1CCCCC1 | ? | >57
CN(c1ccc(C(=O)N2CCCCC2)cc1)S(C)(=O)=O | · | >57
CC1CCN(S(=O)(=O)c2ccc3c(c2)CCN3C(=O)CCC(=O)O)CC1 | -27.0% | >57
CCN(CC)C(=O)CSc1nnc(-c2ccccc2)n1-c1ccccc1 | -8.5% | >57
CC(NC(=O)Nc1ccccc1C(F)(F)F)C1CCCO1 (configuration not stated) | 8.3% | >57
Clc1ccc(C(c2ccc(Cl)cc2)n2cc[n+](C[C@@H](OCc3ccc(Cl)cc3Cl)c3ccc(Cl)cc3Cl)c2)cc1 | ? | >57
CC(C)N1C(=O)CN(C2CCCCCC2)C(=O)C1c1ccccc1F (configuration not stated) | -3.8% | >57
O=c1c2ccccc2ncn1C1CCCCC1 | 3.8% | >57
CC1(C)Cc2c(sc(NC(=O)c3ccco3)c2C#N)C(C)(C)N1 | -4.3% | >57
CCOC(=O)C1CCN(Cc2c(F)cccc2Cl)CC1 | -10.8% | >57
O=C(O)c1c(Cl)cccc1Cl | -5.7% | ·
CCOc1ccc(CCNC(=O)c2oc3c(c2C)-c2[nH]ncc2CC3)cc1OCC | ? | >57
CC1=C(C#N)C(c2cn(-c3ccccc3)nc2-c2cccs2)C(C#N)=C(C)N1 | ? | >57
CCOC(=O)C1=C(N2CCCCC2)c2cc3c(n2C1=O)CCCC3 | 12.1% | >57
COc1cc(C(=O)NCc2nnc(SCC(=O)N3CCCCC3)o2)cc(OC)c1OC | -0.6% | >57
CCOc1ccc2[nH]c(=O)c(CN(Cc3ccc(C)cc3)C(=O)N3CCCC3)cc2c1 | -25.7% | >57
c1ccc2sc(-c3ccc4c(c3)OCO4)nc2c1 | ? | ·
COc1ccc(N(CC(=O)Nc2cc(C)ccc2OC)S(=O)(=O)c2c(C)noc2C)cc1 | ? | >57
Cn1c(N)c(C(=O)NCc2ccccc2)sc1=S | -22.9% | >57
Cn1c(=S)c2[nH]c(SCc3cccnc3)nc2n(C)c1=O | 1.7%[8 µM] | >57
Cc1cc2c(c(SCC(=O)N(C)c3ccccc3)n1)C(=O)OC2 | 2.9% | >57
O=[N+]([O-])c1cc(O)c(O)c([N+](=O)[O-])c1 | -16.2%&0.5% | >57
Cc1ccc(S(=O)(=O)Cc2cccc(C(=O)N3CCOCC3)c2)cc1 | -8.6% | >57
O=[N+]([O-])c1ccc2c(c1)S(=O)c1ccccc1-2 (configuration not stated) | 2.9%[8 µM] | >57
CCOCCCNC(=O)CCNC(=O)c1cc(OC)c(OC)c(OC)c1 | 1.6% | >57
CN1C(=O)/C(=C2\SC(=S)N(CC3CCCO3)C2=O)c2ccccc21 (configuration not stated) | -2.1% | ·
COc1ccc(C(=O)CC(=O)O)c2c1C=CC(C)(C)O2 | -15.5% | ·
CCn1c(SCc2ccc(C#N)cc2)nnc1-c1cccc(Cl)c1 | 7.2% | >57
CC1(C)N(O)C(c2ccc(C(=O)O)cc2)=[N+]([O-])C1(C)C | ? | >57
O=C(NCc1ccccc1)C1CCN(C(=O)NCc2ccccc2)CC1 | 2.8% | >57
O=C(CC1CCCCC1)Nc1c2c(nn1-c1ccc(F)cc1)CS(=O)(=O)C2 | 0.5% | >57
CCn1cc(C(=O)Nc2ccccc2C(=O)OC)c(=O)c2ccc(C)nc21 | 0.3% | >57
CCN(CC)S(=O)(=O)c1cccc(S(=O)(=O)c2cccc(S(=O)(=O)N(CC)CC)c2)c1 | ? | ·
